# Bioassay records: PubChem BioAssay, National Center for Advancing Translational Sciences (NCATS)
# Six1-Eya2 inh: inhibitors of human Six1/Eya2 interaction | activity change, % (test concentration not listed) | actives 0.56% (n = 360,000) | AlphaScreen GST-Six1/His-Eya2 binding, biochemical; hits give low values; control for the full effect not named in the record; in the data active = activity change below about -65%; inconclusive = about -30% to -65%; inactive = above about -30%; further: on the % scale 0 is the no-effect control and ±100 the full control effect; compound concentration not given in the record
# Target sequence (O00167 whole entry, looked up): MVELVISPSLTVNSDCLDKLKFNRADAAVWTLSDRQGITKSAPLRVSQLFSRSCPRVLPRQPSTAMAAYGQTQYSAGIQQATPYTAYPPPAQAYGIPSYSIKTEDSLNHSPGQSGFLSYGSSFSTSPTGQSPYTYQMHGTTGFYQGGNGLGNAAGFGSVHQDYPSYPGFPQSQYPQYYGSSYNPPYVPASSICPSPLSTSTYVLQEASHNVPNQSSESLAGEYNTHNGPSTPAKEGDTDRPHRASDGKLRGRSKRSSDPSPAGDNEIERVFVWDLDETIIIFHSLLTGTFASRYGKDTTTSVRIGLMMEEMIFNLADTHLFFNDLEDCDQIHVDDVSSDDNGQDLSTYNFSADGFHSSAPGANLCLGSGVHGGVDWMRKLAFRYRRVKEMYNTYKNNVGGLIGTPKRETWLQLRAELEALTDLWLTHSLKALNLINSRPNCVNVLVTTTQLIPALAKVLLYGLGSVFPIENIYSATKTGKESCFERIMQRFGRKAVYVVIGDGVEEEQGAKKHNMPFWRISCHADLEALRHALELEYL
# Target sequence (Q15475 whole entry, looked up): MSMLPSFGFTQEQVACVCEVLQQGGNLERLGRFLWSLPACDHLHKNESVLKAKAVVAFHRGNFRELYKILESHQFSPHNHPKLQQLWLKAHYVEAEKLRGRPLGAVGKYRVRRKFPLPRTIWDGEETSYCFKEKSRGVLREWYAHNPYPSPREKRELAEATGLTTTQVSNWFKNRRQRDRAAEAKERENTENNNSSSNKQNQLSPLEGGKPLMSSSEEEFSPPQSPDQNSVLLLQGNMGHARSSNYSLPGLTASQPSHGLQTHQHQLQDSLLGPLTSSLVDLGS
#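 Compounds are tested against tagged Six1 and Eya2 proteins bridged by glutathione donor and nickel acceptor beads; after a one-hour incubation at 37 °C without light, AlphaScreen emission is recorded.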
# Sfp PPTase inh: inhibitors of Bacillus subtilis Sfp phosphopantetheinyl transferase; Biochemical Sfp PPTase activity, qHTS; AID 1490; Potency, µM, without a hit: max response, negative = inhibition, actives largely listed as inhibitors; actives 3.5% (n = 310,000); Q9F4F7; active means well fitted inhibition curve with a large enough effect; inconclusive means small, poorly fitted or top-dose-only effect, or another doubt; inactive means no such curve, though single readings can be large or run the other way;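 further: the enzyme is Sfp with the accession as filed and its product quenches rhodamine fluorescence; potency means the concentration at half of the fitted maximal effect; 0% = enzyme reaction without inhibitor and -100% = no enzyme wells; top concentration of the series not given in the record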
#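 Compounds were incubated with enzyme (final 15 nM) for 15 min at room temperature before substrate addition started the reaction. Fluorescence at 525 nm excitation, 598 nm emission was recorded immediately and after 30 minutes.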
# CtBP-E1A blk: inhibitors of CtBP/E1A interaction | AID 651724 | AlphaScreen GST-E1A/His-CtBP binding, 1536-well; hits give low values; control for the full effect not named in the record | actives 0.49% (n = 340,000) | activity change, % (no concentration beside the values); in the data active means activity change below about -65%; inconclusive means about -30% to -65%; inactive means above about -30%; further: on the % scale 0 is the no-effect control and ±100 the full control effect; compound concentration not given in the record
#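 AlphaScreen with 125 nM GST-E1A and 125 nM His-CtBP (5X stocks) in Tris pH 8.0, 300 mM NaCl, BSA, Tween 20, TCEP. Compounds preincubated 2 h at 37 deg C, then glutathione donor/nickel acceptor beads added for 1 h at 37 deg C in dark.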
# D2 PAM: positive allosteric modulators of human D2 dopamine receptor. P14416. DiscoveRx D2 beta-arrestin cells, luminescence, 90 min; 100% = 57 uM dopamine signal. potentiation, % (test concentration not listed). actives 0.23% (n = 360,000). AID 624464; active = potentiation of 50% or more; inconclusive = 30% to 50%; inactive = 30% or less;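 further: compound concentration not given in the record; tested on top of an EC20 dose of dopamine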
#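 PathHunter D2 cells, attached overnight at 37 deg C, received compound in DMSO plus dopamine at EC20 (50 nM final) for 90 min at 37 deg C. Beta-arrestin recruitment was read as luminescence after 1 h with detection reagent at ambient temperature.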
# PINK1 expr mod: changes PINK1 expression; Potency, µM (doses to about 76.6 µM), for inactives: at the top dose activation (PINK1 increase), actives largely listed as activators; PINK1 immunofluorescence, high-content cytometry, 24 h; actives 0.2% (n = 410,000); AID 624263; active = well fitted activation curve with a large enough effect; inconclusive = small, poorly fitted or top-dose-only effect; inactive = flat fitted curve, though single readings scatter; cell line not stated here;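 further: potency means the concentration at half of the fitted maximal effect; % of control where 0% means no effect; nearly all actives have a fitted effect of over 65% in size; a mitochondrial uncoupler was the plate control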
#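 A stable cell line was treated with compounds at 5 concentrations for 24 hours, with CCCP as control. PINK1 levels and mitochondrial localization were measured by immunofluorescence with mitochondrial, cell and nuclear markers after fixation, read by laser-scanning cytometry.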
# D2 agonist: activates the human D2 dopamine receptor. actives 0.084% (n = 360,000). activation, % (concentration not given with the values). P14416. AID 624465. DiscoveRx PathHunter D2 beta-arrestin, luminescence, 90 min; 100% = 57 uM dopamine signal; in the data active = activation above about 40%; inconclusive = about 15% to 40%; inactive = below about 15%; further: compound concentration not given in the record; the text of the record calls up to 30% inactive
#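 Agonist mode: compounds alone added to overnight-plated D2 PathHunter cells for 90 min at 37 C, with 57 uM final dopamine (EC100) defining full response. Beta-arrestin recruitment detected by chemiluminescent reagent, read after 1 h at ambient temperature.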
# TRPV1 PAM: human TRPV1 potentiation; actives 0.02% (n = 320,000); TRPV1-expressing cells, Fluo-8 calcium influx, capsaicin EC20 potentiation; host cell line not named in the record; control for the full effect not named in the record; Q8NER1; AID 540277; potentiation, % at 8.33 µM; active means potentiation above 80%; inconclusive means 30% to 80%; inactive means below 30%; further: 0% is about no effect
#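 Fluo-8 calcium influx in TRPV1-expressing cells, kinetic read (ex 480/em 520 nm). Compound added and read 3 min for agonist activity, followed by capsaicin at EC20 final and 2 min further read for enhancement.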
# An asterisk follows results filed as active; ? = inconclusive; nt = no result given; & = joins results of further samples; [ ] = another dose, or the depositor's remark. Compounds were not picked by outcome; 3.7% or so of the library scored in one or more.
SMILES,Six1-Eya2 inh,Sfp PPTase inh,CtBP-E1A blk,D2 PAM,PINK1 expr mod,D2 agonist,TRPV1 PAM
CCOC(=O)N1CCN(CC(O)COc2ccc(C)cc2C(C)(C)C)CC1 (stereo not given),1,0%,4,-32,1.8%,-1.0,27
O=C(COc1cccnc1[N+](=O)[O-])NCc1ccccc1,3,9%,-2,-6,0.2%,-1.0,8
O=C(Nc1ccccc1OC(=O)c1ccc(Cl)cc1)c1ccc(Cl)cc1,-8,-12%,4,-3,3.3%,2.1,-20
CCNS(=O)(=O)c1ccc2c(c1)NCC2,3,5%,5,-10,4.0%,-2.6,18
Cc1cc(C)cc(Cn2c3ccc(NC(=S)NC4CCCCC4)cc3c(=O)n2C)c1,-8,nt,-27,-11,0.9%,-2.4,nt
C=CCNCc1ccccc1[N+](=O)[O-],4,nt,0,-16,2.8%,-0.3,13
CC(C)COc1ccc(C(=O)N/C(=C\c2cccc([N+](=O)[O-])c2)C(=O)OC(C)C)cc1,-15,-15%,-1,-16,9.3%,-3.9,-9
O=C(Nc1ccccc1[N+](=O)[O-])c1cc(S(=O)(=O)N2CCOCC2)cs1,-17,12%,-12,8,0.1%,-0.4,-18
CCc1c(C)sc(NC(=O)C2CCCO2)c1C#N (stereo not given),1,22µM*,-1,-10,1.7%,3.8,-13
N#Cc1ccc(C(=O)Nc2cc(S(=O)(=O)N3CCCC3)ccc2OCC(F)(F)F)cc1,4,2%,-10,-5,0.4%,-7.1,6
O=C(COc1ccccc1)NCC(=O)NC1=NCCS1,-2,-7%,0,-12,0.2%,0.2,-2
COc1ccc(CCNC(=O)c2c(O)c3cccc4c3n(c2=O)CC4)cc1,7,17%,9,0,4.1%,-0.1,12
O=C(CCS(=O)(=O)c1cccc2nonc12)N1CCOCC1,1,5%,3,-8,-4.2%,-2.4,9
Cc1nnc(C)n1/N=C/c1c(O)ccc2ccccc12,-2,-27%,nt,-5,-0.3%,0.0,?
COc1cccc(/C=C/C(=O)OCC(=O)Nc2nnc(-c3ccccc3)o2)c1,?,nt,?,14,-1.7%,0.9,-14
CN(C)CCN1CCN(C2CN(Cc3cn(Cc4cccc(C(F)(F)F)c4)nn3)S(=O)(=O)C2)CC1 (stereo not given),-7,nt,3,nt,0.8%,nt,nt
CC1CCN(C(=S)c2ccc(O)cc2)CC1,-2,56µM*,-4,3,-1.5%,-1.9,7
O=S(=O)(Nc1nc2ccc(S(=O)(=O)N3CCCCC3)cc2s1)c1ccccc1,2,-18%,1,-3,-3.1%[38.3 µM],1.3,16
COc1ccc2ccccc2c1/C=N/Nc1ccc(Cl)c(C(=O)O)c1,-21,-13%,-24,4,1.5%,12,-6
FC(F)(F)Oc1ccccc1-c1nnc(-c2cccc(C(F)(F)F)c2)o1,29,17%,17,-8,0.8%,-3.7,nt
Cc1ccc(NC(=O)c2ccccc2CCc2ccccc2)c(C)c1,10,12%,5,-21,?,-4.8,8
CC(C)c1ccc(NC(=O)CCCN2C(=S)NC(C)(C)CC2C)cc1 (stereo not given),-6,11%,-2,-6,4.2%,0.6,-5
N#Cc1cccc(NC(=O)CN2CCN(Cc3ccccc3)CC2)c1,-1,17%,-9,-18,0.9%,-2.8,-3
CCOc1ccccc1/C=C\c1nc(O)c([N+](=O)[O-])c(=O)[nH]1,2,1%,8,-3,3.0%,-3.7,8
CC(NC(=S)Nc1ccc(Cl)cc1Cl)C(c1cccs1)N1CCCC1 (stereo not given),-15,18%,-19,-36,?,-2.5,-8
Cc1nn(C)c(Sc2ccccn2)c1[N+](=O)[O-],-1,31%[activator],-3,-6,-1.0%,-1.6,-4
CCOc1ccc(NC(=O)CSc2nnc(-c3ccccc3Cl)n2Cc2ccco2)cc1,-19,-2%,-7,-25,1.2%,-1.9,3
Cc1c(NC(=O)CCc2ccccc2)cccc1[N+](=O)[O-],6,0%,2,-6,0.7%,-4.2,10
Cc1ccc(NS(=O)(=O)c2ccc(NC(=O)c3ccc(Br)o3)cc2)c(C)c1,-15,14%,-15,-4,?,2.0,7
COc1ccc(Cn2c(=O)[nH]c3cc(C(=O)N4CCN(Cc5ccccc5)CC4)ccc3c2=O)cc1,-8,2%,-3,8,1.3%,-0.5,-5
COc1ccccc1-n1c(SCC(=O)NCc2ccc3c(c2)OCO3)nc2cc([N+](=O)[O-])ccc21,-30,-84%,3,-1,-1.3%,5.5,-21
O=C1NC(=S)SC1=Cc1ccc(F)cc1,-17,nt,-2,-1,?,-3.3,nt
NC(=O)c1ccccc1NC(=O)COC(=O)C1(c2ccccc2)CC1,0,nt,-14,-17,-0.4%,-4.5,18
Cc1ccc2c(c1)nnn2C1CCN(C(=O)Nc2ccccc2C)CC1,8,21%,5,-6,-0.2%,2.4,-31
COCc1c(C(=O)OCc2nc3ccsc3c(=O)[nH]2)oc2ccccc12,-3,nt,3,-3,2.6%,1.5,26
COCCOC(=O)c1c(C)oc2ccc(O)c(CN3CCC(C)CC3)c12 (tested in a mixture with another compound),6,nt,0,-7,-1.6%,-3.6,nt
CCC(C)c1ccc(OCCN2CCCC2)cc1 (stereo not given),-4,-10%,0,-30,1.0%,-4.1,6
O=C(Cn1c(=O)c2cccn2c2cccnc21)N1CCN(c2ccc(Cl)cc2)CC1,-18,-6%,nt,-5,-0.7%,7.7,-6
O=[N+]([O-])c1ccc(N2N=C(c3ccco3)CC2c2ccccc2)cc1 (stereo not given),10,50µM*,15,-26,-1.3%,-3.8,-1
Cc1ccc(C#CC[N+]2(C)CCCCC2)cc1,10,2%,2,-2,-1.9%,-3.3,4
O=C(Cc1ccc(Br)cc1)N1CCc2ccccc2C1,4,0%,nt,-13,0.2%,-1.7,6
COC[C@@H]1CCCN1c1ccc2c(c1)O[C@@H](COCc1ccccc1)CN([C@@H](C)c1ccccc1)S2(=O)=O,1,nt,-28,nt,0.5%,nt,nt
O=C(NNC(=S)Nc1ccccc1)c1cccc(S(=O)(=O)N2CCOCC2)c1,-6,21%,1,-7,-0.1%,-3.6,3
COc1ccc(-c2nc(CS(=O)CC(=O)NC3CCCC(C)C3C)c(C)o2)cc1OC (stereo not given),-1,-2%,0,-14,0.9%,-1.3,-5
Cc1ccc(C(=O)NC2CCCc3ccccc32)o1 (stereo not given),-3,23%,1,-10,0.3%[38.3 µM],-2.6,-11
CCOc1ccc(OCC)c(NC(=O)CCn2cccc2)c1,?,?,-23,-16,-1.7%,-1.9,15
COCCN1C(=O)C(=O)/C(=C(/O)c2cccc(OC)c2)C1c1ccncc1 (stereo not given),4,-3%,1,-5,-0.8%,-3.1,9
Cc1ccc(CNC(=O)c2ccc(N3CCC4(CC3)CC(c3cccc(Br)c3)=NO4)c(NC(=O)c3ccccc3)c2)cc1,-1,nt,2,-9,-1.6%,-3.9,24
N#CC(C#N)=c1ccc2c(c1)N1C(c3ccccc3)=CC(c3ccccc3)C3CCCCC31N=2 (stereo not given),-2,6%,-2,5,2.7%,1.3,-11
CCn1c(SCC(=O)Nc2cc(C)on2)nnc1-c1cccs1,2,14%,-2,1,-1.0%,-0.5,?

# (listing goes on)
SMILES,Six1-Eya2 inh,Sfp PPTase inh,CtBP-E1A blk,D2 PAM,PINK1 expr mod,D2 agonist,TRPV1 PAM
CCc1cc(CNC(=O)CC2C(=O)NCCN2Cc2ccc(-c3ccccc3)cc2)on1 (stereo not given),-8,-3%,-9,-15,-0.4%,-1.6,-5
CSC1=NCCN1C(=O)c1cccs1,-5,4%,0,-5,-0.7%,-3.3,9
O=C(NCc1cccc2ccccc12)Nc1ccccc1,9,14%,nt,-6,7.5%,-4.5,-7
Cc1ccc(Nc2nc(N3CCOCC3)c3ccccc3n2)cc1,12,-30%,8,-37,1.5%,-0.5,-29
COCCC(=O)N1CCC(Oc2ccc(C(=O)NCc3cc(C)n(C)n3)cc2)CC1,5,15%,3,-2,0.6%,1.0,-7
CC(=O)C1=C(O)C(=O)N(Cc2cccnc2)C1c1ccc(Cl)cc1Cl (stereo not given),-7,-11%,-5,15,nt,-0.1,-15
COc1ccc(-c2noc(CCC(=O)N3CCN(c4ccc(Cl)cc4)CC3)n2)cc1,1,nt,2,-3,0.8%,-2.6,nt
Cc1ccc(NS(=O)(=O)c2ccc(NC(=O)N3CCCCC3)cc2)cc1,-8,10%,-3,-4,4.6%,-2.0,-11
CC(Oc1ccc2c(-c3ccccc3)cc(=O)oc2c1)C(=O)NCCCn1ccnc1 (stereo not given),1,13%,-3,-32,-0.5%,-3.3,4
CC(C)Nc1c(N)c(=O)oc2ccccc12,2,?,7,0,0.2%,-1.8,3
CS(=O)(=O)N1CCC(C(=O)NCc2ccncc2)CC1,0,8%,5,4,0.6%,-2.0,12
Cc1ccc(-c2nn3c(C)nnc3c3ccccc23)cc1S(=O)(=O)NCc1ccccc1,0,7%,9,-2,6.5%[38.3 µM],-2.5,28
CC(C)c1ccc(NC(=O)CNC(=O)Cn2ccc3ccccc3c2=O)cc1,3,-2%,3,-1,-0.8%&0.4%,-2.5,1
Cc1nn(-c2ccc(NC(=O)c3ccncc3)cc2)c(C)c1Cl,6,0%,-5,-1,0.0%,11,-4
OC(c1cc(F)cc(Cl)c1)c1ncc(-c2cccc(C(F)(F)F)c2)[nH]1 (stereo not given),-12,nt,-15,-8,?,13,nt
COc1ccccc1CC(=O)Nc1cccc(S(=O)(=O)N2CCOCC2)c1,21,9%,2,-4,2.1%,2.3,10
O=C(NC1CCCCC1)N1CCN(c2ccc([N+](=O)[O-])cc2)CC1,1,3%,-2,-8,-0.6%,1.5,-27
C=C1C(=O)C=C2CN(C(=O)c3ccccc3)[C@@](Cc3ccc(F)cc3)(C(=O)OC)[C@@H]12,4,10µM*,0,-24,6.9%,-8.7,2
